S aureus helic: S. aureus DNA helicase inhibition; purified S. aureus helicase, fluorescence unwinding assay; about half of the hits fall short of the stated cut; inhibition, %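 (tested at about 80 µM)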; 0.05% of 120,000 active; AID 485395;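 active = both duplicates at 50% or more, or one of them with a favoured structure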;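 also: 0% = mean of negative control wells and 100% = mean of positive control wells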
MgrA DNA FP: alters Staphylococcus aureus MgrA binding to DNA. inhibition, %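 (about 10 µg/mL by stock and volumes)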. AID 602314. 0.13% of 84,000 active. fluorescence polarization;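 active = above 50% in either of two replicates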;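 also: 0% = protein plus DNA without compound and 100% = DNA alone without protein; higher means less MgrA bound to DNA so lower polarization; one replicate is shown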
The depositor's hits bear a star; . = no result given; & = joins results of further samples. The list is partial; rates above refer to the full screens.

S aureus helic | MgrA DNA FP | smiles
-7 | . | Cc1ccc(NC(=O)C2CCC(C)(C(=O)NN)C2(C)C)cc1 (stereo not drawn)
. | 0.3 | CCOC(=O)c1ccc(N=c2oc3ccccc3cc2C(=O)Nc2ccc(F)cc2)cc1
. | -1.3 | Cc1c(/C=N/OC(=O)c2ccc(Cl)cc2)c(=O)n(-c2ccccc2)n1C
-1 | 13 | CN(C)/C=C/C=C1C(=O)CCCC1=O
-9 | -1.8 | O=C(NCCCn1ccnc1)c1cc(=O)c2ccccc2o1
. | -0.1 | CC(C)n1c(C(F)(F)F)nc2cc(C(=O)Nc3ccc(Cl)cc3)ccc21
6 | 1.8 | COC(=O)N(C)c1ccc(C(O)(C(F)(F)F)C(F)(F)F)cc1
-18 | . | Cc1ccc(-c2nn(-c3ccccc3)cc2C(=O)N2CCCc3ccccc32)o1
22 | . | CCN1CCSc2ccc(C(=O)N3CCC(C)CC3)cc21
-10 | 0.1 | COc1ccc(Cl)cc1NC(=O)c1cnn(-c2ccc(F)cc2)c1C1CCNCC1
. | 1.5 | COC(=O)c1cc(OC)c(OC)c(OC)c1NC(=O)c1cc2ccccc2oc1=O
. | 3.2 | CC(=O)Nc1cccc(OCCCN2CCS(=O)(=O)CC2)c1
-9 | 1.7 | COC(CN(C)C(=O)c1cc2c(s1)-c1ccccc1OC2)OC
12 | -0.2 | O=C(CSc1nnnn1-c1ccc2c(c1)OCCO2)NC1CCCC1
20 | . | C/C(=N/OC(=O)c1ccccc1)c1oc(C)nc1C
-15 | . | Cc1ccc2nc(SC(C)C(=O)N3CC(C)OC(C)C3)[nH]c2c1 (stereo not drawn)
. | -2.7 | Fc1ccc(N=CNc2ccc(F)cc2F)c(F)c1
3 | 17 | Cc1ccc(O)c(CNc2cccc3cccnc23)c1
1 | . | CCOC(Cn1c(SCC(=O)Nc2cc(C)on2)nc2ccccc2c1=O)OCC
11 | -1.4 | CC1CCCCC1NC(=O)CSc1ccccc1 (stereo not drawn)
-29 | . | COc1ccc(-n2cc(C(=O)NC(C)Cn3c(=O)oc4ccccc43)nn2)cc1 (stereo not drawn)
. | -4.0&-0.1 | CCCN(CCC)S(=O)(=O)c1ccc(C(=O)O)cc1
15 | . | O=C(Cn1cc(S(=O)(=O)Cc2ccccc2)c2ccccc21)Nc1ccon1
-13 | 1.6 | CCn1c(CC(=O)Nc2ccccc2)nnc1SC(C)C(=O)Nc1ccc2c(c1)OCO2 (stereo not drawn)
-18 | . | COc1cc(C2N(c3cc(C)on3)C(=O)C3CCCN32)cc(OC)c1OC (stereo not drawn)
-3 | . | O=C(NCCc1ccccn1)c1cc(Cl)ccc1Cl
-2 | . | Cc1ccc(Nc2nc(C)cc(C)n2)c(C(=O)O)c1
. | 14 | Cc1sc2[nH]c(=S)[nH]c(=O)c2c1C
-15 | . | Cc1nc2ncnn2c(C)c1CCC(=O)NCCCc1ccccc1
-5 | . | Cc1cc(=O)n(CC(=O)NC2CCCCC2)c2c1c(C)nn2-c1ccccc1
. | 0.8 | C/C(COc1ccc(Cl)cc1Cl)=N\O
-1 | -0.9 | CC(C)C(=O)c1cn(CC(=O)NCc2cccs2)c2ccccc12
13 | . | Cc1cc(C(=O)O/N=C/c2c(Cl)cccc2Cl)nn1C
12 | . | CC(C)CC(=O)Nc1ccc(C(=O)Cn2nnc(-c3ccccc3)n2)cc1
. | 0.9 | Cc1ccccc1C(=O)Cc1ccc(C(N)=O)cc1
8 | -0.7 | CC1CC/C(=C/c2ccc(Cl)cc2)C(=O)C1 (stereo not drawn)
1 | 0.7 | CCN(CC)S(=O)(=O)c1cccc(C(=O)NN)c1
. | 10 | COc1cc(Br)cc(/C=C2/C(=O)NC(=O)N(c3ccc(Cl)cc3)C2=O)c1O
-4 | . | CNC(=O)Cn1nc(C)c(S(=O)(=O)N(C)C)c1C
7 | . | O=C(c1ccccc1)c1cnc2cc3c(cc2c1N1CCN(c2ccccc2)CC1)OCCO3
13 | -2.2 | CC(C)(C)C1CCC2(CC1)C(C#N)C2(C#N)C(=O)c1ccccc1 (stereo not drawn)
-23 | . | CCOc1ccc(N(CC(=O)NN=C2CCCCC2)S(C)(=O)=O)cc1
. | 2.0 | O=C(Nc1ccccc1)Nc1ccccc1Sc1nccc(C(F)(F)F)n1
8 | . | O=C(Cn1nc(-c2ccc(Cl)cc2)ccc1=O)NC1CCCC1
8 | -0.9 | O=C1C2C(C(=O)N1C13CC4CC(CC(C4)C1)C3)C1C=CC2C12CC2 (stereo not drawn)
16 | . | CCC(C)NC(=O)NCc1c(C)nn(C)c1C (stereo not drawn)
12 | . | Cc1[nH]c2ccccc2c1C(=O)C(C)OC(=O)C1CC1 (stereo not drawn)
8 | . | COc1ccccc1CNC(=O)C(CC(C)C)NS(=O)(=O)c1ccc2nc(C)sc2c1 (stereo not drawn)
. | 0.0 | C[C@H]([C@H](C)N1CC(=O)NC(=O)C1)N1CC(=O)NC(=O)C1
5 | -3.5 | CCOC(=O)C1=C(c2ccccc2)OC(N)=C(C#N)C1c1ccncc1 (stereo not drawn)

Individual results from the entries so far.
`Cc1ccc(Nc2nc(C)cc(C)n2)c(C(=O)O)c1` – S aureus helic = -2
`CCOC(=O)C1=C(c2ccccc2)OC(N)=C(C#N)C1c1ccncc1` (stereo not drawn) – MgrA DNA FP = -3.5
`CC1CC/C(=C/c2ccc(Cl)cc2)C(=O)C1` (stereo not drawn) – MgrA DNA FP = -0.7
`CCOc1ccc(N(CC(=O)NN=C2CCCCC2)S(C)(=O)=O)cc1` – S aureus helic = -23
`O=C(Cn1nc(-c2ccc(Cl)cc2)ccc1=O)NC1CCCC1` – S aureus helic = 8
`COc1ccccc1CNC(=O)C(CC(C)C)NS(=O)(=O)c1ccc2nc(C)sc2c1` (stereo not drawn) – S aureus helic = 8

Next results follow.
S aureus helic | MgrA DNA FP | smiles
-1 | . | O=c1cc(Cn2ncc(Cl)c(Cl)c2=O)[nH]c(=O)[nH]1
1 | -4.8 | CCc1nnc(NC(=O)CCc2cccs2)s1
. | 0.2 | Cc1ccccc1C(=O)NCC(=O)c1ccc(Br)cc1
32 | . | O=C(N/N=C\c1ccncc1)c1ccc(COCC(F)(F)F)cc1
-1 | 1.4 | O=C(/C=C/c1ccco1)N/C(=C\c1ccc2c(c1)OCO2)C(=O)N1CCCCCC1
18 | 0.9 | CCOc1ccc(CCNC(=O)C2=C(C)C(=O)OC23CCC(C)CC3)cc1 (stereo not drawn)
7 | 0.3 | COc1ccc(Oc2coc3cc(OC(=O)N4CCOCC4)ccc3c2=O)cc1
. | -1.3 | N#CC1=C2Sc3ccccc3N2C(=N)/C(=C2\Nc3ccccc3S2)C1c1ccc(C#N)cc1 (stereo not drawn)
. | -0.5 | Oc1c(Br)cc(Br)cc1C=Nc1ccc(Cc2ccc(N=Cc3cc(Br)cc(Br)c3O)cc2)cc1
22 | . | COC(=O)c1cc(Br)ccc1OC(=O)c1cccnc1
. | 1.1 | Cc1cc(=O)n2ncnc2n1CC(=O)NN
. | -1.2 | CC(=O)Nc1sc2c(c1C#N)CCc1ccccc1-2
36 | . | CCCNC(=O)Nc1ccc2nc(N3CCN(C)CC3)cc(C)c2c1
. | -0.5 | C/C=C/C(=O)Nc1ccc(N2CCN(c3ccc(C(F)(F)F)cn3)CC2)nc1
-5 | . | Cn1cc(NC(=O)N2CCCc3ccccc32)c2ccccc2c1=O
. | 2.1 | O=C(O)/C=C/C(=O)N1CCN(c2ncnc3scc(-c4ccccc4)c23)CC1
-4 | . | CS(=O)(=O)N1CCCc2cc(C(=O)N(CC(=O)Nc3ccccc3C(F)(F)F)Cc3ccco3)ccc21
13 | 4.4 | CC1CCCCN1c1nc2ccccc2n2cnnc12 (stereo not drawn)
22 | . | CCNS(=O)(=O)c1ccc2c(c1)oc(=O)c1cc(S(=O)(=O)NCC)ccc12
. | -0.9 | COc1ccc(CNc2nc(-c3cccs3)c(C#N)c(=O)n2C)cc1
. | -0.2 | CCCCCCCCCCCCCCCCC1CCCC/C1=N/O (stereo not drawn)
10 | 0.2 | O=C(COc1ccccc1)NCc1ccncc1
-2 | 1.1 | C=CCN(C(=O)CSc1nnc(CC)n2c1cc1oc(C)cc12)c1ccccc1
-2 | . | Cc1cccc(-c2nnc(SCC(=O)C34CC5CC(CC(C5)C3)C4)n2Cc2ccco2)c1
30 | . | Cc1ccsc1/C=N/NC(=O)CSc1nnc(-c2ccccc2)n1-c1ccccc1
. | -1.2 | COCc1cc(=O)n2[nH]c(C(C)(C)C)cc2n1
. | -5.3 | C=CCn1cc(/C=c2\sc3n(c2=O)C(c2ccc(OC)cc2)C(C(=O)OCC)=C(C)N=3)c2ccccc21 (stereo not drawn)
. | -0.6 | COc1cc(OC)c2c(c1)C(=O)OC2OC (stereo not drawn)
3 | . | N#Cc1cccc(C(=O)NC2CCCC2)c1
-34 | . | O=C(c1ccncc1)N1CCN(C(=O)c2ccncc2)CC1
5 | . | CCC(Sc1nc2ccccc2s1)C(=O)O (stereo not drawn)
18 | -0.6 | O=C(Cn1cnc2ccccc2c1=O)Nc1ccccc1
11 | -2.3 | O=C(CSc1nc2ccccc2c(=O)n1-c1ccccc1)NC1CCCCC1
. | -1.5 | O=C(O)c1cncc(C#CCC2CCCCC2)c1
-1 | -2.0 | Cc1ccc(-c2ccc(C#N)c(=O)n2CC(=O)N2CCNC(=O)C2(C)C)cc1
8 | 8.6 | O=C1N/C(=N\S(=O)(=O)Cc2ccccc2)S/C1=C\c1ccco1
. | -1.0 | COc1ccc(CNCc2ccc(OC)c(OC)c2)cc1C
-6 | . | O=C1CC(c2cccc(F)c2)C2=C(CC(c3ccc(F)cc3)CC2=O)N1 (stereo not drawn)
10 | -0.7 | CCC(C(=O)c1ccccc1)n1nc(-c2cccs2)ccc1=O (stereo not drawn)
15 | 0.9 | Cc1ccc(SCc2[nH]n(-c3nc4ccccc4s3)c(=O)c2C=NCc2ccco2)cc1
. | -1.6 | c1nc(NCCCN2CCOCC2)c2c3c(sc2n1)CCCC3
-12 | 0.0 | CCc1ccc(-n2c(N(C)Cc3ccccc3)nc3ccccc3c2=O)cc1
14 | . | CC(C)=C1SC(=O)NC1=O
0 | . | CC(C(=O)NCC1CCCO1)n1cccc1C(=O)c1ccccc1 (stereo not drawn)
4 | 26 | OCCN=Cc1[nH]c2ccccc2c1O
. | 3.7 | O=C(O)P(=O)(O)O
11 | -1.1 | O=C(/C=C/c1ccccc1)Oc1ccccc1
-5 | -0.3 | Cc1ccc(-n2c(C)nnc2SCc2nc(-c3ccc(Cl)cc3)no2)cc1C
. | 1.0 | Cc1c(C)c(C)c(CS(=O)(=O)CC(=O)Nc2ccc(F)c(Cl)c2)c(C)c1C
. | 10 | Cc1cc(=O)oc2c(/C=N/c3ccccn3)c(O)ccc12

As a working copy, part of the list above:
S aureus helic | MgrA DNA FP | smiles
. | 3.2 | CC(=O)Nc1cccc(OCCCN2CCS(=O)(=O)CC2)c1
-9 | 1.7 | COC(CN(C)C(=O)c1cc2c(s1)-c1ccccc1OC2)OC
12 | -0.2 | O=C(CSc1nnnn1-c1ccc2c(c1)OCCO2)NC1CCCC1
20 | . | C/C(=N/OC(=O)c1ccccc1)c1oc(C)nc1C
-15 | . | Cc1ccc2nc(SC(C)C(=O)N3CC(C)OC(C)C3)[nH]c2c1 (stereo not drawn)
. | -2.7 | Fc1ccc(N=CNc2ccc(F)cc2F)c(F)c1
3 | 17 | Cc1ccc(O)c(CNc2cccc3cccnc23)c1

Other results follow:
S aureus helic | MgrA DNA FP | smiles
-4 | 3.0 | COc1cccc(NC(=O)Nc2nncs2)c1
43 | . | COc1ccc(NC(=O)CSC2=C(C#N)C(c3ccccc3C)C3=C(CCCC3=O)N2)cc1 (stereo not drawn)
16 | . | S=c1[nH]c2ccc(Cl)cc2o1
. | 1.2 | Nc1cc(Cl)c(N2CCOCC2)cc1N1CCOCC1
19 | 2.5 | CCC(C(=O)Nc1ccccc1O)c1ccccc1 (stereo not drawn)
-2 | 0.6 | CCN(CC)C(=O)CSc1nc2ccccc2cc1C
. | -1.1 | CC(C)n1c(/C=C/[C@@H](O)C[C@@H](O)CC(=O)O)c(-c2ccc(F)cc2)c2ccccc21
16 | -0.1 | O=C(O)c1c(CNCCc2ccc(Cl)cc2)c2ccccc2n1Cc1ccccc1
2 | . | CCCCSc1nnc(CSc2ncccn2)n1CCc1ccccc1
. | -0.5 | O=C(O)c1ccccc1C(=O)NCCNc1ccc(C(F)(F)F)cn1
-9 | 0.9 | O=C(O)CCC(=O)Nc1ccccc1N1CCCCC1
6 | 6.2 | O=C1Nc2ccccc2/C1=N\N1CCN(Cc2cccc3ccccc23)CC1
-13 | . | COc1nc(-c2ccccc2)nc(Cl)c1NC(=O)c1cccs1
. | -0.8 | Cc1c(C(=O)N2CCCCC2)sc2nc(C(F)(F)F)nn12
17 | -0.9 | COc1ccc(Nc2ccccc2Cl)cc1
-1 | 0.2 | COC(=O)Nc1nnc(COc2cccc(C)c2)s1
10 | . | CC(c1ccccc1)n1c(CO)nc2ccccc21 (stereo not drawn)
24 | . | COc1ccccc1NC(=O)N=S1CCN(C(=O)c2ccc(Cl)cc2)CC1
6 | 0.0 | C=CCN(CC=C)C(=O)C[n+]1ccc(C(N)=O)cc1
9 | -2.4 | CNCC(=O)NC(c1ccccc1)c1ccccc1
-5 | . | CC(=O)Nc1ccc(SCC(=O)/C(C#N)=C(\C)N)cc1
-19 | . | COc1ccc(NC(=O)C(NS(=O)(=O)c2ccc3c(c2)c(=O)n(C)c(=O)n3C)c2ccccc2)cc1 (stereo not drawn)
1 | . | O=C(O)CC1C(=O)NC(=Nc2ccccc2)N1c1ccccc1 (stereo not drawn)
. | -2.0&-2.5 | CCOc1ccc(Cc2nccc3cc(OCC)c(OCC)cc23)cc1OCC
. | -1.7 | Cc1onc(-c2c(Cl)cccc2Cl)c1C(=O)Nc1ccc2c(c1)OCCO2
-38 | . | CCc1ccc(NC(=O)CCS(=O)(=O)c2ccc3c(c2)NC(=O)CS3)cc1
3 | -3.7 | CCn1nnnc1SCC(=O)Nc1ccccc1
8 | 0.8 | Cc1nn(-c2ccccc2)c(C)c1Sc1ccccc1
11 | 1.2 | CCOC(=O)C1CCCN(S(=O)(=O)Cc2ccccc2Cl)C1 (stereo not drawn)
